# Screening results deposited in PubChem BioAssay by National Center for Advancing Translational Sciences (NCATS).
# Menin-MLL FL inh: menin-MLL binding inhibition, fluorescein peptide | Fluorescence polarization, fluorescein-MLL peptide displacement from menin | FP activity change, % at 61.4 µM | 290,000 tested, under 10 active | AID 1766; inconclusive = falling polarisation curve, or a change in total fluorescence; inactive = total fluorescence flat and polarisation flat or rising; no compound was filed as active; the % refers to the polarisation; negative = inhibition;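 also: % of control where 0% means no effect; inhibitors lower the polarisation; unlabelled MLL peptide was the positive control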
# ClpP mod: qHTS Assay for Activators of ClpP; ATP-dependent Clp protease proteolytic subunit (Bacillus subtilis (strain 168)), P80244; purified B. subtilis ClpP, FRET peptide cleavage, 20 min; Potency, µM (doses to about 57.5 µM), for the others: at the top dose activity change, negative = active; hit rate 1.9% among 340,000; active = well fitted falling curve with a large enough effect; inconclusive = small, poorly fitted or top-dose-only effect; inactive = no such curve, though single readings can be large or run the other way; also: potency is read from the fitted curve at half-maximal effect; the source files actives as falling curves though it sought activators and does not explain the sign; nearly all actives have a fitted effect of over 65% in size; many hits overshoot -100%
# Target sequence (P80244 whole entry, looked up): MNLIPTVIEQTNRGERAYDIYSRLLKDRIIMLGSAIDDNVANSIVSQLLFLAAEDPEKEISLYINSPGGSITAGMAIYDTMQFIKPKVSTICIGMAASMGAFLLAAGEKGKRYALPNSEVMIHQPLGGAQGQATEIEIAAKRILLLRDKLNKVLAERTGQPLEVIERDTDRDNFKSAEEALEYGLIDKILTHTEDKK
#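 Purified B. subtilis ClpP, 10 microg/mL final in Tris/HCl pH8 with KCl, BSA, glycerol and Tween-20, cleaved an Abz/nitrotyrosine-quenched decapeptide. Fluorescence (ex 320, em 430) was read at 0 and 20 min at room temperature. Delta was normalized to 5.8 microM ADEP and DMSO/no-enzyme controls.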
# TRPV1 potentiator: human TRPV1 potentiation; Q8NER1; TRPV1-expressing cells, Fluo-8 calcium influx, capsaicin EC20 potentiation; host cell line not named in the record; control for the full effect not named in the record; potentiation, % at 8.33 µM; hit rate 0.02% among 320,000; active means potentiation above 80%; inconclusive means 30% to 80%; inactive means below 30%; also: 0% is about no effect
#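 Cells expressing TRPV1 were dye-loaded with Fluo-8 and read kinetically: 10 s baseline, 3 min after compound (agonist portion), then 2 min after EC20 capsaicin (allosteric enhancer portion). Calcium-bound dye fluorescence at 480/520 nm.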
# TRPML1 blocker: blocks the human TRPML1 channel | Q9GZU1 | TRPML1-inducible cells, Ca2+ dye fluorescence, FDSS; stronger effect = lower value; inhibition of EC80 agonist-evoked calcium signal | activity change, negative = inhibition, % (test concentration not listed) | hit rate 0.02% among 390,000; in the data active means activity change below about -50%; inconclusive means about -30% to -50%; inactive means above about -30%;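 also: stimulus is agonist 54-4 at its EC80 concentration; % is scaled to controls: 0 for no effect and ±100 for the full control effect; compound concentration not given in the record; the text of the record puts the active cut at -80%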
# Target sequence (Q9GZU1 whole entry, looked up): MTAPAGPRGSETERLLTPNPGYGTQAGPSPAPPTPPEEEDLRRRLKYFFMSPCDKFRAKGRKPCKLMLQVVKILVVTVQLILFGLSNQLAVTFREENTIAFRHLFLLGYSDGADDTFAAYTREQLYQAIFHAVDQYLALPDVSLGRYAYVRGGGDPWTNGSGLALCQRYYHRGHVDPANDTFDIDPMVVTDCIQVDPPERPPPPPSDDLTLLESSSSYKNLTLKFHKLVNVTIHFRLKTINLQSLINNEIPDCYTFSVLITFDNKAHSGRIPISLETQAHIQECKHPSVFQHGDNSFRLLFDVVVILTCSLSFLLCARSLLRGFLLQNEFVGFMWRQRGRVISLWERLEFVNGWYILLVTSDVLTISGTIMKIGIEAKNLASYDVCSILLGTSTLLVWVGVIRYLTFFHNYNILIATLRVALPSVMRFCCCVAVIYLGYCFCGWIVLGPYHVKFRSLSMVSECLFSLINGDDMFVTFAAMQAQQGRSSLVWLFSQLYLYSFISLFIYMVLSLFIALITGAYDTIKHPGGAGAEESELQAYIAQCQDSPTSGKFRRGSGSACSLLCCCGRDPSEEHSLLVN
#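 Tet-induced TRPML1-DL cells loaded with Ca8 no-wash calcium dye were read kinetically on FDSS. Compound addition was followed by EC80 agonist 54-4 (4 uM final); inhibition was read over 110 s.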
# PINK1 modulator: modulators of PINK1 expression; PINK1 immunofluorescence, high-content cytometry, 24 h; Potency, µM (titrated, usually from 76.6 µM), without a hit: at the top dose activation (PINK1 increase), most hits filed as activators; hit rate 0.2% among 410,000; AID 624263; active = well fitted activation curve with a large enough effect; inconclusive = small, poorly fitted or top-dose-only effect; inactive = flat fitted curve, though single readings scatter; cell line not stated here;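 also: potency is read from the fitted curve at half-maximal effect; % of control where 0% means no effect; nearly all actives have a fitted effect of over 65% in size; a mitochondrial uncoupler was the plate control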
#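 Cells are seeded, rested 12 hours, then given compound at five concentrations or DMSO for 24 hours. After fixation, blocking and antibody staining, PINK1 amount and mitochondrial localization are scored; CCCP serves as control.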
# Sfp inh: blocks B. subtilis Sfp PPTase activity | Potency, µM, for inactives: max response, negative = inhibition, hits mostly inhibitors | Q9F4F7 | hit rate 3.5% among 310,000 | AID 1490 | Biochemical Sfp PPTase activity, qHTS; active = well fitted inhibition curve with a large enough effect; inconclusive = small, poorly fitted or top-dose-only effect, or another doubt; inactive = no such curve, though single readings can be large or run the other way;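 also: the enzyme is Sfp with the accession as filed and its product quenches rhodamine fluorescence; potency is read from the fitted curve at half-maximal effect; 0% = enzyme reaction without inhibitor and -100% = no enzyme wells; top concentration of the series not given in the record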
#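 Reaction rates are the 30-min fluorescence difference (ex 525, em 598 nm) in wells containing 15 nM Sfp, 5 uM rhodamine-CoA and 12.5 uM BHQ-2-YbbR at pH 7.6 with 10 mM MgCl2.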
# TRPML1 ag: agonists of human TRPML1 channel; Q9GZU1; TRPML1-expressing cells, Ca2+ dye fluorescence, FDSS; host cell line not named in the record; reference of the full effect not given here; activation, % (no concentration beside the values); hit rate 0.12% among 410,000; in the data active = activation above about 50%; inconclusive = about 30% to 50%; inactive = below about 30%; also: 0% is about no effect; the text of the record puts the active cut at 80%
#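 Kinetic FDSS Ca2+ read in Tet-induced TRPML1-DL cells (ABD Ca8 dye plus quencher, 45-90 min RT loading): baseline, then compound, then 110 s agonist window; EC80 agonist 54-4 at 4uM final added afterwards for a 110 s antagonist window.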
# An asterisk follows results filed as active; ? = inconclusive; / = not tested or not shown; & = joins results of further samples; [ ] = remark or other dose. An unsorted share of the library (roughly 4.4% active in at least one column).
SMILES,Menin-MLL FL inh,ClpP mod,TRPV1 potentiator,TRPML1 blocker,PINK1 modulator,Sfp inh,TRPML1 ag
COc1ccc(-n2cnnc2SCC(=O)Nc2ccc(C(N)=O)cc2)cc1,5.8,/,?,7,-0.4%,11%,-0.6
Cc1ccc(-c2noc(Cn3cc(S(=O)(=O)N4CCCC4)ccc3=O)n2)cc1,/,-1.4%,9,4,0.5%,/,-0.6
Cc1oc2ncnc(N3CCCCC3)c2c1C(=O)NCC1CCN(Cc2ccccc2F)CC1,/,1.5%,/,-3,-0.8%,/,-0.9
CCOC(=O)c1nn(-c2ccc(F)cc2)c(=O)cc1OCC(=O)Nc1ccc(OCC)cc1,/,/,-6,39,-2.3%,/,0.4
CCOC(=O)c1c(S(=O)(=O)N2CCCC2)c(C)n(C)c1C,-1.2,-2.4%,6,0,-1.5%,21%,-0.2
CC(=O)N1CCN(c2ccc(NC(=O)c3cccc(Cl)c3)cc2)CC1,2.7,/,-6,-4,1.1%,5%,-0.4
CC(C)(C)c1ccc(C(CC(=O)O)NC(=O)CSc2ccccc2)cc1 (stereo not given),0.7,/,21,27,0.5%,20%,1.9
COc1cccc(-c2nnc3sc(CN4CCCCC4)cn23)c1,/,-4.1%,/,-6,2.7%,/,3.4
CCOC(=O)C(C)(C)N(Cc1ccccc1C)S(=O)(=O)c1ccc(Cl)c([N+](=O)[O-])c1,6.6,-26%,-2,22,-2.0%,0%,0.4
CCN(CC(=O)NCc1cccs1)C(=O)c1ccc(NS(=O)(=O)c2cccc([N+](=O)[O-])c2)cc1,/,-1.3%,12,37,-1.3%,/,-0.7
O=C(c1cccc(OC(F)F)c1)N1CCN(c2ncccn2)CC1,3.0,-13%,2,41,-0.2%,0%,-0.9
Cc1nn(-c2ccccc2)c(OC(=O)c2ccc(Br)cc2)c1S(=O)(=O)c1ccccc1,/,-2.7%,/,-24,0.9%,/,-0.4
C#CCOc1c(Cl)cc(C2C3=C(CCCC3=O)N(CC(=O)O)C3=C2C(=O)CCC3)cc1OC,-10,/,11,-6,0.2%,-5%,-0.3
O=C(COC(=O)c1nsc(Cl)c1Cl)NC1CCCC1,-0.3,/,4,1,0.1%,5%,-0.2
CCN(CC(=O)Nc1c(F)cccc1F)C(=O)/C=C/c1ccc(S(=O)(=O)N2CCCCCC2)cc1,/,-1.3%,26,-7,9.5%,/,-0.1
Cc1ccc(-n2nc3cc(C)c(NC(=O)c4cccnc4)cc3n2)cc1,1.6,1.9%,2,4,?,23%,1.5
O=C(COc1ccc(/C=N/NC(=O)c2ccccc2O)cc1)Nc1ccc([N+](=O)[O-])cc1,5.6,-1.4%,-11,11,?,5%,0.1
CC(=O)c1cc(C#N)c(SCC(=O)OC(C)(C)C)nc1C,5.4,1.1%,8,3,11%,4%,-0.1
O=C(Cc1ccccc1)NCCC1=CCCCC1,2.6,1.0%,-8,-2,-2.5%,0%,2.3
Cc1cc(NC(=O)CSc2nnnn2-c2ccc(C)c(C)c2)no1,-3.6,/,5,-13,4.9%,5%,1.2
O=C(CCCCCNC(=O)N1CCn2c1nc1ccccc12)N[C@@H](C(=O)O)c1ccccc1,-2.3,0.9%,12,/,0.0%,8%,/
COc1ccc(Nc2nc(-c3ccccc3)c3ccccc3n2)cc1,2.6,1.5%,9,5,1.5%,5%,-0.3
CC(C)(C)OC(=O)COc1cc(F)ccc1[N+](=O)[O-],/,1.8%,7,2,1.6%,/,0.1
COC(=O)c1[nH]c2cc(OC)c(OC)cc2c1NC(=O)CN1CCN(Cc2ccccc2)CC1,-1.1,/,-25,/,/,9%,/
CC(C)C(C(=O)Nc1cccnc1)N1C(=O)c2ccccc2C1=O (stereo not given),0.2,-1.0%,-7,-12,-1.5%,16%,-0.1
CC(=O)Nc1cccc(NC(=O)CSc2nc3c(=O)n(C)c(=O)n(C)c3n2C)c1,/,-0.9%,14,17,-2.0%,/,-0.2
CCc1cccc2c(C(=O)C(F)(F)F)cn(CC(=O)NCC3CCCO3)c12 (stereo not given),0.6,-0.6%,4,0,1.4%,20%,0.8
COc1cc(C)nc(NS(=O)(=O)c2ccccc2)n1,-6.4,0.8%,9,-13,-2.0%,7%,-0.3
COCCCNC(=O)C1CCCN(C(=O)Nc2ccc(OC)cc2)C1 (stereo not given),2.8,-2.1%,10,-6,-0.8%[38.3 µM],6%,-0.4
CCCCn1c(=O)[nH]c(=O)c2c1nc(-c1ccc(OCC)cc1)n2CC,8.7,/,-3,4,9.3%,0%,2.5

# Filtered by structure, those above with a COOH group.
SMILES,Menin-MLL FL inh,ClpP mod,TRPV1 potentiator,TRPML1 blocker,PINK1 modulator,Sfp inh,TRPML1 ag
CC(C)(C)c1ccc(C(CC(=O)O)NC(=O)CSc2ccccc2)cc1 (stereo not given),0.7,/,21,27,0.5%,20%,1.9
C#CCOc1c(Cl)cc(C2C3=C(CCCC3=O)N(CC(=O)O)C3=C2C(=O)CCC3)cc1OC,-10,/,11,-6,0.2%,-5%,-0.3
O=C(CCCCCNC(=O)N1CCn2c1nc1ccccc12)N[C@@H](C(=O)O)c1ccccc1,-2.3,0.9%,12,/,0.0%,8%,/

# The list goes on:
SMILES,Menin-MLL FL inh,ClpP mod,TRPV1 potentiator,TRPML1 blocker,PINK1 modulator,Sfp inh,TRPML1 ag
O=C(Cc1ccc(Cl)cc1)NCC(=O)N1CCC2(CC1)NCCc1[nH]cnc12,/,-5.0%,/,-16,-0.7%,/,0.0
Cc1ccccc1NC(=O)CSc1nnc(NC(=O)C2CC2)s1,-0.2,/,?,9,-0.2%,-11%,0.3
C=CCSc1nnc(Cc2c(C)[nH]c3ccccc23)o1,2.2,0.6%,-9,-11,0.6%,8%,-1.4
CCOc1ccc(S(=O)(=O)N(CC(=O)NCCc2ccc(OC)c(OC)c2)c2ccccc2)cc1,/,-1.3%,/,6,0.6%,/,-1.1
COc1ccc(N2CCN(C(=O)Cn3cnc4c(cnn4-c4ccc(C)cc4)c3=O)CC2)cc1,-2.8,1.1%,6,15,0.9%,1%,-0.8
Cc1csc(=Nc2ccc(S(=O)(=O)N3CCOCC3)cc2)n1Cc1ccco1,5.4,0.9%&-1.0%,20,-7&12,-0.3%&-0.6%,?,4.5&-0.1
COc1cc(O)c(CCO)c2c1C(=O)C[C@@H](C)O2,-7.0,-19%,?,/,0.8%,-6%,/
C/C(=N\Nc1nc(N2CCCCC2)nc(N2CCOCC2)n1)c1cccs1,-1.3,/,-50,-6,0.1%,-14%,0.1
CN(C)CC#Cc1cncc(C(=O)NNC(=O)Nc2ccc(Cl)cc2)c1,1.0,1.6%,11,7,-1.3%,-5%,-0.4
CC(C)Cn1c(=O)c2ccccc2n2c(CCC(=O)N3CCN(c4ccccc4F)CC3)nnc12,/,-2.0%,/,12,1.5%,/,1.5
FC(F)(F)c1cc(-c2ccccc2)nc(NCC2CCCO2)n1 (stereo not given),4.6,-16%,-23,9,5.8%,2%,1.0
CC(=O)Nc1ccc(NC(=O)c2c(-c3ccccc3Cl)noc2C)cc1,-1.7,/,?,20,0.5%,22%,0.7
O=C(COC(=O)CCN1C(=O)C2CC=CCC2C1=O)Nc1ccc([N+](=O)[O-])cc1 (stereo not given),/,1.3%,/,0,-0.6%,/,-0.3
CCn1c(SCC(=O)OC)nnc1-c1ccncc1,1.5,-7.8%,6,0,-2.0%,25%,3.5
COc1cc2c(cc1OC)C(COc1ccccc1OC)N(C(=O)c1ccccc1OC)CC2 (stereo not given),/,0.2%,/,-7,-5.9%,/,3.1
COc1ccc(CC(=O)Nc2cccc(-c3nnc(-c4ccco4)o3)c2)cc1,2.7,2.2%,/,6,11%,-23%,0.7
O/N=C/c1cc(Br)cs1,2.8,-0.5%,4,-1,0.8%,16%,-0.7
COc1ccc(S(=O)(=O)N(C)C)cc1NC(=O)CCNC(=O)c1ccccc1OC,1.1,-1.8%,-14,8,1.2%,5%,0.9
COc1ccc(OCC(=O)c2c[nH]c3ccccc23)cc1,-0.3,/,-4,-4,-0.2%,28%,-0.3
COC(=O)c1ccccc1NC(=O)NC1CCCC1,0.5,/,-10,19,1.3%,21%,-0.7
Cc1ccc(S(=O)(=O)N2C[C@H]3C(=O)C[C@@H](c4ccccc4)N(S(=O)(=O)c4ccc(C)cc4)[C@H]3C[C@H]2c2cccc(C)c2)cc1,/,0.0%,/,?,1.4%,/,93*
CCOc1ccc(OCC(=O)OCc2cc(=O)n3cc(Br)ccc3n2)cc1,/,-0.3%,-18,4,0.8%,/,4.4
Cc1[nH]c2ccc(C(=O)NCCCN3CCCCC3)cc2c1C,/,2.3%&-8.0%,-15,3&-2,1.3%&-1.3%,2%,-0.7&0.7
OC1CCN(c2c3c(nc4cc(-c5cccc(F)c5)nn24)CCCC3)CC1,3.9,-22%,-17,40,/,0%,1.1
COc1nc(N2CCCC2)nc(-n2nnc(C(C)=O)c2C)n1,-6.9,/,-37,-16,0.4%,15%,-0.6
COc1ccc(C(=O)N2CCOC2CNC(=O)C(=O)NCc2ccccn2)cc1 (stereo not given),/,0.4%,/,-11,0.4%,/,-0.5
Cc1cc2nc(-c3ccc(F)cc3)c(Cc3ccsc3)n2c(C)c1Br,/,-4.0%,/,/,29%,/,0.8
CO[C@@H]1[C@@H](OC(N)=O)[C@@H](O)C(Oc2ccc3c(O)c(NC(=O)c4ccc(O)c(CC=C(C)C)c4)c(=O)oc3c2C)OC1(C)C (stereo not given in full),/,-0.3%,6,2,1.5%,/,-0.7
CCOC(=O)N1CCN(c2cc(N3CCN(CC)CC3)c(F)cc2[N+](=O)[O-])CC1C (stereo not given),1.1,-0.2%,-5,25,-1.3%[38.3 µM],0%,0.4

# Some of the entries so far, with tabs:
canonical_smiles	Menin-MLL FL inh	ClpP mod	TRPV1 potentiator	TRPML1 blocker	PINK1 modulator	Sfp inh	TRPML1 ag
O=C(COC(=O)CCN1C(=O)C2CC=CCC2C1=O)Nc1ccc([N+](=O)[O-])cc1 (stereo not given)	/	1.3%	/	0	-0.6%	/	-0.3
O=C(CCCCCNC(=O)N1CCn2c1nc1ccccc12)N[C@@H](C(=O)O)c1ccccc1	-2.3	0.9%	12	/	0.0%	8%	/
